# Measles inh = inhibitors of measles virus growth in infected cells; infected Vero cells, GFP fluorescence, 64 h; stronger effect = lower value; z-score (test concentration not listed); 33,000 compounds, 0.1% hits; AID 745;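 active means z-score under -3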;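 further: score is relative to mean and SD of the compound wells of a plate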
# Numbers without * were called inactive. This is a subset (hit frequency here may not be typical).
Compound,Measles inh
Cc1ccc(N2C(=O)CC(Sc3nc4ccccc4s3)C2=O)cc1Cl (centres undefined),0.47
Cc1ccc(NC(=O)c2c(NC(=O)c3ccco3)sc3c2CCC(C(C)(C)C)C3)c(C)c1 (centres undefined),-0.54
CCN(CC)S(=O)(=O)N1CCC(C(=O)NC2CCCCC2C)CC1 (centres undefined),-0.52
CCn1c(SCC(=O)Nc2ccc(C(C)C)cc2)nc2ccsc2c1=O,-1.25
O=C(Nc1ccc(O)c(-c2nc3ccccc3s2)c1)c1ccc(-c2ccccc2)cc1,-1.42
Cc1ccc(-n2nc(C)c(S(=O)(=O)c3ccccc3)c2OC(=O)c2ccc([N+](=O)[O-])cc2)c(C)c1,1.84
Cc1cccc(-n2nnc(C(=O)NCc3ccco3)c2N)c1,0.44
O=C(c1nn(-c2ccc(Cl)cc2)c(=O)c2ccccc12)N1CCCC1,1.56
CCCN(CCC)S(=O)(=O)c1ccc(C(=O)Nc2nc3c(s2)CCCC3)cc1,-1.37
O=C(CSc1nc(-c2ccccc2)nc2c1CCCC2)c1ccccc1,0.27
O=C(NCCc1cnc[nH]1)c1ccc2c(=O)n(CC3CCCO3)c(=S)[nH]c2c1 (centres undefined),-0.02
CCc1cccc(CC)c1NC1=NS(=O)(=O)c2ccccc21,-0.47

# More records.
Compound,Measles inh
Cc1cccc(N2C(=O)CSC2c2ccc(F)cc2)c1 (centres undefined),-0.38
Cc1ccc(Cn2c(SCC(=O)Nc3cc(C)[nH]n3)nc3c(sc4ccccc43)c2=O)cc1,-2.29
CCCCNC(=O)c1cc(-c2ccccc2OC)on1,-0.17
CSCCC(C(=O)Nc1ccc([N+](=O)[O-])cc1)N1C(=O)c2ccccc2C1=O (centres undefined),-0.4
COc1ccc(CCNC(=O)c2ccc3c(c2)NC(=O)CS3)cc1OC,1.31
O=C(NC1CCCC1)c1cc(-c2ccccn2)nc2ccccc12,-0.01
Cc1nc(Nc2ccccc2F)c2c(C)c(C)sc2n1,-0.17
O=C(Nc1ccccc1[N+](=O)[O-])c1cc(-c2ccccc2)nc2c(Cl)cccc12,0.2
CCOC(=O)C1=C(C)NC2=C(C(=O)CCC2)C1c1ccc2c(c1)OCO2 (centres undefined),-0.05
Cc1cc(-n2sc(Cl)c(C)c2=O)ccc1Cl,-1.25
Cc1ccc(S(=O)(=O)Nc2cc3c(C(=O)OC(C)C)c(C)oc3c3ccccc23)cc1,-0.17
Cc1cc2nc(-c3ccc(NC(=O)c4cccc([N+](=O)[O-])c4C)cc3)oc2cc1C,-0.19

# Next records.
Compound,Measles inh
C=CCn1c(SCC(=O)c2ccc(OC)c(OC)c2)nc2sc3c(c2c1=O)CCCC3,-0.67
COc1ccc(CCN2COc3c(c4c(C(C)=O)c(C)oc4c4ccccc34)C2)cc1OC,2.11
CCOC(=O)c1c(NC(=O)C(F)(F)F)sc2c1CCCC2,-1.06
CCN(CC)c1ccc2cc(C(N)=O)c(=Nc3cccc(C)c3)oc2c1,2.25
COc1ccc(N2Cc3cccc(C(=O)Nc4ccc(C)cc4)c3C2=O)cc1,-1.01
CCCCN1C(=O)C2ON(c3ccccc3)C(c3cc(Br)ccc3O)C2C1=O (centres undefined),-1.81
COc1ccc(NC(=O)C2CCN(S(=O)(=O)c3cccs3)CC2)c(OC)c1,-0.3
O=c1c2ccccc2nc(SCc2ccc([N+](=O)[O-])cc2)n1-c1ccc(F)cc1,-0.82
COc1ccc(OC)c(NC(=O)CCCn2c(=S)[nH]c3ccccc3c2=O)c1,1.08
CCn1cc(C(=O)NCCc2ccc(Cl)cc2)c2cc(OC)c(OC)cc2c1=O,0.61
COC(=O)c1c(N)ncn1-c1ccccc1OC,0.19
O=C(NCCCN1CCN(c2ccccc2F)CC1)C1CC(=O)N(C2CCCC2)C1 (centres undefined),0.56

# New compounds follow.
Compound,Measles inh
CCOC(=O)CC(=O)CSc1ncnc2sc3c(c12)CCCC3,-0.9
COc1ccc([N+](=O)[O-])cc1NC(=O)c1ccccc1OC(C)=O,-0.32
CCc1nc2oc(C(=O)c3ccc(Cl)cc3)c(N)c2c2c1COC(C)(C)C2,-0.22
Cc1nn(CCCC(=O)Nc2cc(Oc3ccc4c(c3)CCC4)cc([N+](=O)[O-])c2)c(C)c1[N+](=O)[O-],-1.76
CC(=O)Nc1cc(C(=O)N2CCN(c3cc(Cl)ccc3C)CC2)ccc1Sc1ccc(C)cc1,-0.48
Cc1ccc(C)c(NC(=O)c2cc3c(=O)n4ccccc4nc3s2)c1,1.13
COc1ccc(O)c(C=Nc2sc(C)c(C)c2C#N)c1,2.24
Cc1ccc(C(=O)N2CCN(Cc3ccccc3)CC2)cc1[N+](=O)[O-],-0.82
COc1ccc(NC(=O)C2C3NC(=S)N(c4cccc(Cl)c4)C2(C)Oc2ccc(OC)cc23)cc1 (centres undefined),-0.92
CC1CCC(OC(=O)CCC(=O)Nc2sc3c(c2C#N)CCCC3)CC1C (centres undefined),0.62
Cc1cccc(C)c1N1C(=O)c2ccc([N+](=O)[O-])c3c([N+](=O)[O-])ccc(c23)C1=O,4.44
Clc1cccc(Nc2nc(-c3ccccc3)nc3ccccc23)c1,-0.87

# The list goes on:
Compound,Measles inh
CCc1c(C)sc(NC(=O)CSc2n[nH]c(C)c2[N+](=O)[O-])c1C#N,-1.04
N#Cc1cnn(C(=O)c2cccs2)c1N,-0.26
COc1ccc(N2CC(=O)NC2=O)cc1,-1.1
CC(C)(C)NCC(O)Cn1c2ccccc2c2ccccc21 (centres undefined),-0.74
COc1ccc(C2C(C(=O)OCCc3ccccc3)=C(C)NC3=C2C(=O)CC(C)(C)C3)c(OC)c1 (centres undefined),-1.72
Cc1ccc([N+](=O)[O-])cc1N1C(=O)C2C3C=CC(CC3)C2C1=O (centres undefined),-0.22
O=C(c1ccccc1)c1cc2c(ccc3ccccc32)oc1=O,-0.14
CCOC(=O)c1ccc(CNS(=O)(=O)c2ccc(C3CCCCC3)cc2)o1,-0.91
O=C(OCC#CCSc1nc2ccccc2o1)c1ccc([N+](=O)[O-])cc1,-0.2
COCCCNC(=O)C1CCN(S(=O)(=O)c2ccc(F)cc2)CC1,0.65
Cc1ccc(C(=O)Oc2cccc(C(=S)N3CCOCC3)c2)cc1,-0.27
O=C(O)CCC(=O)N1N=C(c2c(-c3ccccc3)c3cc(Cl)ccc3[nH]c2=O)CC1c1ccccc1 (centres undefined),-1.24

# The list continues.
Compound,Measles inh
COC(=O)CNC(=O)Cn1ccc2ccccc2c1=O,-0.3
COc1ccc(-c2[nH]c3ccccc3c2SCCNC(=O)C2CCCC2)cc1,0.19
COc1cc2c(cc1OC)C(C(=O)N1CCN(Cc3ccccc3)CC1)C(c1ccc(SC)cc1)N(C)C2=O (centres undefined),-0.36
O=C(NCc1ccccc1)c1nn2c(C(F)(F)F)cc(-c3ccccc3)nc2c1Br,0.73
COc1ccc2oc(=O)c(C(=O)Nc3ccc(S(N)(=O)=O)cc3)cc2c1,0.02
NC(CC(=O)O)c1cccc([N+](=O)[O-])c1 (centres undefined),-0.35
CCCCN(CC)S(=O)(=O)c1ccc(C(=O)Nc2nc3c(s2)COc2ccccc2-3)cc1,-0.14
Cc1c(N=Cc2cc(Br)ccc2O)c(=O)n(-c2ccccc2)n1C,0.16
COc1ccc(NC(=O)C2=C(C)NC(=O)NC2c2cc(OC)c(OC)c(OC)c2)cc1 (centres undefined),-0.49
CCOC(=O)C1=CN(C(C)C)C=C(C(=O)OCC)C1c1cccc([N+](=O)[O-])c1,-0.83
COc1ccc(CSc2nsc(SCc3cccc(OC)c3)c2C#N)cc1,0.45
COC(=O)Cn1c(SCC(=O)Nc2nccs2)nc2ccsc2c1=O,0.37

# Remaining list, next part.
Compound,Measles inh
O=C(NCc1cccs1)c1ccc(CNS(=O)(=O)c2ccc(Br)cc2)cc1,1.06
CC1=C(C(=O)OC(C)C)C(c2cn(-c3ccccc3)nc2-c2ccc(Cl)cc2)C(C(=O)OC(C)C)=C(C)N1,1.61
Cn1c(C(F)(F)F)nc2c(=O)oc3ccccc3c21,1.6
CCCN1C(=O)C2C(C(=O)Nc3cccc(SC)c3)C3C=CC2(O3)C1C(=O)NC1CCCC(C)C1C (centres undefined),2.54
CN1CCc2c(sc(N)c2C(=O)O)C1,0.04
O=C(CSc1ccc2ccccc2n1)NCc1ccc2c(c1)OCO2,-1.35
CC1=CCC2C(=O)N(c3ccccc3OCC(=O)c3ccc(F)cc3)C(=O)C2C1 (centres undefined),-0.08
O=C(c1cccs1)N1CCN(C23CC4CC(CC(C4)C2)C3)CC1,-0.68
O=C(CCCn1c(=O)[nH]c2ccc(Br)cc2c1=O)NCCCN1CCCCC1,-0.26
CCN(CC)C(=O)CSc1cc(=O)n(C)c2ccccc12,-0.35
CC(C)CCNS(=O)(=O)c1cccc2nsnc12,1.46
CCOc1ccc(C2/C(=C(\O)c3ccc(C)cc3)C(=O)C(=O)N2c2cccnc2)cc1 (centres undefined),-0.86

# Next section.
Compound,Measles inh
Nc1nnc2c([nH]c3ccccc32)c1-c1ccccc1,-0.28
Cc1nnc2c(N3CCOCC3)nc3ccccc3n12,-0.8
O=[N+]([O-])c1ccc(N2CCCC2)cc1NC1CC1,0.81
COc1ccccc1C=Nc1cc(-c2ccccc2)nn1-c1ccccc1,0.21
FC(F)(F)C(Oc1nc(NC2CCCCC2)nc(N2CCOCC2)n1)C(F)(F)F,-0.17
O=C1C2C3C=CC(C3)C2C(=O)N1Cc1ccccc1 (centres undefined),0.12
CCOC(=O)c1c(NC(=O)c2ccc(C(=O)c3ccccc3)cc2)sc2c1CCCC2,-0.36
Nc1nc2n(n1)C(c1ccccc1)CC(=O)N2 (centres undefined),0.54
Cc1ccccc1N1OC2C(=O)N(c3ccc(F)cc3)C(=O)C2C1c1ccccn1 (centres undefined),-0.24
CCc1nnc(SCC(=O)NC2CCCCC2)nc1CC,1.41
CCC1CCCCN1CCCn1c(=S)[nH]c2ccc(N3CCOCC3)cc2c1=O (centres undefined),-0.87
CCOC(=O)c1c(NC(=O)CSc2nc(N)cc(=O)[nH]2)sc2c1CCCCC2,-0.46

# 3 entries out of the list, sorted by count of non-hydrogen atoms, high to low:
Compound,Measles inh
CCOC(=O)c1c(NC(=O)c2ccc(C(=O)c3ccccc3)cc2)sc2c1CCCC2,-0.36
CCC1CCCCN1CCCn1c(=S)[nH]c2ccc(N3CCOCC3)cc2c1=O (centres undefined),-0.87
Nc1nc2n(n1)C(c1ccccc1)CC(=O)N2 (centres undefined),0.54

# Later entries
Compound,Measles inh
COc1ccc(Cl)cc1Nc1nnc(-c2cc3c(ccc4ccccc43)oc2=O)s1,-0.07
Cc1ccc(N2C(=O)c3cccc(Cl)c3C2=O)cc1,1.29
Cc1nc(N(C)c2ccc(C(C)C)cc2)c2c(C)c(C(=O)N3CCCCC3)sc2n1,0.85
Fc1ccc(-n2cc(-c3ccccc3)c3c(NC4CCCCCC4)ncnc32)cc1,0.37
CCC1Sc2ccccc2N(CC(=O)NCc2ccc(C)cc2)C1=O (centres undefined),1.94
COc1ccc(-c2csc(NC(=O)c3ccc(S(=O)(=O)N4CCc5ccccc54)cc3)n2)cc1,1.92
O=C(c1cccn2c(=O)c3ccccc3nc12)N1CCN(c2ccccc2)CC1,-1.17
O=C(Cc1c(C(=O)O)[nH]c2ccc(Cl)cc12)NCc1ccc2c(c1)OCO2,1.5
CCn1c2ccccc2c2cc(NC(=O)CCC3CCCCC3)ccc21,-0.11
Cc1ccccc1NC(=O)c1c(NC(=O)c2cccc(Br)c2)sc2c1CCCC2,0.93
O=C(O)c1c[nH]c2ccc(S(=O)(=O)N3CCCC3)cc2c1=O,1.34
Cc1cc(NC(=O)CCc2nc(-c3ccccc3F)no2)no1,0.16

# Other structures
Compound,Measles inh
CC(=O)N(C)C1(C(=O)NC2CCCC2)CCCCC1,0.96
COc1ccc(C2NC(=O)NC(C)=C2C(=O)Nc2ccc(C)cc2C)cc1OC (centres undefined),1.28
COC(=O)C1=C(C)NC2=C(C(=O)CC(c3ccc(OC)cc3)C2)C1c1ccc(O)cc1 (centres undefined),-0.65
Cc1ccc(C)c(C(=O)COC(=O)CNS(=O)(=O)c2ccccc2)c1,-0.22
Cc1c(C(=O)NCc2ccccc2)sc2[nH]c(=O)n(-c3ccc(Cl)cc3)c(=O)c12,0.52
Cc1ccc(NC(=O)Cn2cnc3cc(C)c(C)cc32)cc1C,0.64
Clc1ccc(Cc2noc(C34CC5CC(CC(C5)C3)C4)n2)cc1,0.26
CCC(C)NC(=O)c1cc2nc(-c3ccc([N+](=O)[O-])cc3)cc(C(F)(F)F)n2n1 (centres undefined),0.62
CN(C)CCNC(=O)C1CCCN(S(C)(=O)=O)C1 (centres undefined),-0.49
CCn1c(SCC(=O)Nc2ccc(C)cc2)nnc1C1CC1,0.35
Fc1ccc(C2=CC(c3ccc(Br)cc3)n3nnnc3N2)cc1 (centres undefined),-0.29
O=S(=O)(Nc1nccs1)c1ccc(Nc2nnc(-c3ccc(Cl)cc3)c3ccccc23)cc1,-0.22

# (further entries)
Compound,Measles inh
COC(=O)c1c(C)oc2c1cc(NS(=O)(=O)c1c(C)cc(C)cc1C)c1ccccc12,0.18
CC(=O)c1ccc(N=c2oc3ccc(Br)cc3cc2C(N)=O)cc1,-0.52
CCN(CC)C(=O)C1c2ccccc2C(=O)N(CCOC)C1c1c[nH]c2ccccc12 (centres undefined),-0.84
COc1ccc(C(=O)Nc2ccc3nn(-c4ccc(Cl)cc4)nc3c2)cc1,-0.05
COc1ccc(-c2nc(NC(C)=O)sc2C)cc1[N+](=O)[O-],-0.84

# 4 of the compounds above, as labelled records.
SMILES: Cc1ccccc1NC(=O)c1c(NC(=O)c2cccc(Br)c2)sc2c1CCCC2
  Measles inh: 0.93
SMILES: O=C(O)c1c[nH]c2ccc(S(=O)(=O)N3CCCC3)cc2c1=O
  Measles inh: 1.34
SMILES: Cc1cc(NC(=O)CCc2nc(-c3ccccc3F)no2)no1
  Measles inh: 0.16
SMILES: CC(=O)N(C)C1(C(=O)NC2CCCC2)CCCCC1
  Measles inh: 0.96
